From PubChem
NPYLR7 ag: activates Aedes aegypti NPYLR7 receptor; HEK293T NPYLR7/Galpha15, GCaMP6s calcium fluorescence; activation, % at 10 µM; hit rate 0.15% among 270,000; in the data active = activation above about 40%;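 also: 0% = vehicle and 100% = reference agonist at the receptor; some compounds past the cut are filed as inactive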
NPYLR7 ag max-min: further read-out of NPYLR7 ag, marked with its call; activation, %; measured here: Max-Min RFU normalised activation; some inactives read as strong as hits;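 span of the calcium signal over five minutes; 0% = vehicle and 100% = native peptide agonist; compound fluorescence can raise it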
* = called active by the depositor; & = joins results of further samples.

#	molecule	NPYLR7 ag	NPYLR7 ag max-min
1	O=C(NC1CC1)c1cccc(CNC(=O)N2CCCC2c2ccncc2)c1 (centres undefined)	6	5
2	COc1ccc(-c2ccnc(SCc3ccc(C(=O)N4C5CCC4CC(Oc4ccc6c(c4)OCO6)C5)cc3)n2)cc1 (centres undefined)	18	11
3	Cn1nc(-c2ccccc2)c2c1NC(=O)CC2c1ccc2nonc2c1 (centres undefined)	4	1
4	O=C(Nc1ccccn1)c1cccc(S(=O)(=O)N2CCCCCC2)c1	2	0
5	CCc1nc2ccc(C(=O)NCCCN3CCCC3=O)cn2c1N(C)Cc1nccn1C	-5	-7
6	COc1ccc(CCC(=O)N(C)Cc2ccsc2)cc1	0	-2
7	Oc1ccccc1OCCOc1ccccc1O	-3	-2
8	CCS(=O)(=O)NC1CCN(C(=O)c2cccc(C)c2)CC1	3	2
9	CCCCCCNC(=O)CCc1c(C)nc2cc(=O)[nH]n2c1C	13	11
10	CCc1nnc(-c2cc3ccccc3n2CC(=O)NC2CCCCC2)o1	2	2
11	CCS(=O)(=O)c1ccccc1C(=O)N(Cc1ccccn1)c1nc2c(F)cccc2s1	-1	-3
12	Cc1cccc(OCC(=O)N2CCN(c3ncnc4c3nnn4Cc3ccccc3)CC2)c1	-4	-9
13	Cc1ccc(C)c(-n2c(C)nnc2SCC(=O)NC23CC4CC(CC(C4)C2)C3)c1	0	-3
14	O=C(CSc1ccc(C(=O)NCCCN2CCOCC2)cn1)c1ccc(Cl)cc1	-3	1
15	CN(C)c1ncccc1CNC(=O)CCCc1cccs1	0	-1

#	molecule	NPYLR7 ag	NPYLR7 ag max-min
16	N#Cc1ccc(S(=O)(=O)NC(=O)CCOc2ccccc2Cl)cc1	7	6
17	C=CCN(CC(=O)N1CCc2sccc2C1c1ccc(F)cc1)C(=O)C(CC)CCCC (centres undefined)	18	13
18	CC(C)c1cc(N2CC[C@@H](N3CCOCC3)[C@H](O)C2)nc(C(F)(F)F)n1	2	0
19	CCOC(=O)CCCCCCCCCCCCC1C=CCC1 (centres undefined)	-13	-14
20	Cc1noc(C)c1CSCC(=O)NC1COc2ccccc2C1 (centres undefined)	4	2
21	O=C(C1=Cc2ccccc2OC1)N(Cc1cccnc1)c1ccc(F)cc1	13	10
22	COCC(=O)N1CCN(c2ccc(Oc3ccccc3)cc2)C(=O)C1C (centres undefined)	2	5
23	Cc1[nH]cnc1-c1c(-c2ccccc2)ncn1CC(=O)Nc1nccs1	12	8
24	Cc1ccc(N2CC(NC(=O)N3CCn4cccc4C3c3ccccc3F)CC2=O)cc1 (centres undefined)	11	5
25	CC(c1ccncn1)N(C)C(=O)c1ccc(NC(=O)C2CCC2)cc1 (centres undefined)	3	4
26	Cc1ccc(C=NN2CCN(C)CC2)s1	6	5
27	CCC(C)(C)NC(=O)c1ccc2c(c1)S(=O)(=O)c1ccccc1C2=O	6	0
28	Cc1ccc(Cl)c(C(=O)N2CCc3c(nc(-c4ccncc4)[nH]c3=O)C2)c1	2	0
29	COc1ccc(C2=CC(C)(c3ccc(OC)c(F)c3)Nc3ncnn32)cc1F (centres undefined)	6	3
30	FC(F)(F)c1ccc(C2c3cccn3CCCN2Cc2ccc3c(c2)OCCO3)cc1 (centres undefined)	-3	2

#	molecule	NPYLR7 ag	NPYLR7 ag max-min
31	CSC(C)Cc1c(-c2ccccc2)ncn1Cc1noc(C2CCCC2)n1 (centres undefined)	21	13
32	O=C(NCC1(c2ccccc2)CCOCC1)C1CC(Cc2cccc(Cl)c2)=NO1 (centres undefined)	6	1
33	N#C/C(=C/c1ccc[nH]1)c1cccc(C#N)c1	-10	-17
34	N=c1scc(-c2ccc(Oc3ccccc3)cc2)n1CCCS(=O)(=O)O	2	1
35	COc1ccc(C2c3ccsc3CCN2CC(=O)N2CCN(S(=O)(=O)c3ccc(Cl)c([N+](=O)[O-])c3)C(C)C2)cc1 (centres undefined)	-14	-4
36	CCCCCc1nnc(NC(=O)CCn2nc(-c3cccs3)oc2=O)s1	-3	1
37	CC(C)(C)C(=O)Nc1c(-c2cccc(F)c2)nc2ccccn12	5	6
38	CC1c2cccn2CCN1C(=O)c1ccccc1N1CCOCC1 (centres undefined)	4	3
39	CC(=O)c1ccc2c(c1)Sc1ccccc1N2CCCN1CCN(CCO)CC1	7	10
40	CCN1CCN(C(c2ccccc2)C2Sc3nc(C)nn3C2=O)CC1 (centres undefined)	7	2
41	COC(=O)[C@H](Cc1ccc(OC)cc1)NC(=O)[C@@H]1CNCCN1C(C)=O	-1	-6
42	COc1cccc(-c2ccccc2NC(=O)C2CCN(CC(C)c3ccccc3)CC2)c1 (centres undefined)	0&8	-1&1
43	Cc1c(C)n2c3c(=O)n(CC(C)C)c(=O)n(C)c3nc2n1-c1ccccc1	5	2
44	CC(=O)OCc1c(C)cc(C)c(/C=N\O)c1C	1	-1
45	CCN(CC)c1cc2nonc2c2nonc12	3	2

#	molecule	NPYLR7 ag	NPYLR7 ag max-min
46	CCCn1c(SCC(=O)C(C)(C)C)n[nH]c1=O	1	3
47	CCn1c2ccccc2c2cc(Nc3cccc(-c4ccc5ccccc5c4)n3)ccc21	-7	-9
48	CCOC(=O)N1CCN(C(=O)Cc2c(C)nc(SCc3ccccc3F)[nH]c2=O)CC1	-10	-15
49	CCOc1ncccc1CN1CCCC(C(=O)NCCC2=CCCCC2)C1 (centres undefined)	13	6
50	O=C1N=C2OC(C(=O)N3CCCCC3)=CN2CCN1	0	0
51	CC(C)N1CCN(Cc2cccc3cnccc23)CC1CCO (centres undefined)	1	-4
52	CC1CCN(S(=O)(=O)N2CCCC(C(=O)O)C2)CC1 (centres undefined)	6	1
53	Cc1nc2c(s1)CCCC2Nc1nccc(-c2cc(C(=O)O)ccn2)n1 (centres undefined)	11	6
54	O=C(Cc1cc(F)cc(F)c1)N1CCC(n2c(-c3ccccc3)nc3ccc(F)cc32)CC1	9	-3
55	O=C(c1csc2nc(-c3ccccc3)cn12)N1CCOCC1	3	0
56	COc1cccc(Cn2cccc2CN(C(=O)CN(CC(C)C)C(=O)/C=C/c2ccccc2)C(C)(C)C)c1	9	8
57	CCOC(=O)C(C#N)=C1C=C(C)N(c2ccc(OC)cc2[N+](=O)[O-])C(C)=C1	-4	-7
58	Cc1ccc2nc(CN(C)Cc3ccnc(C(C)C)n3)[nH]c2c1	5	3
59	CN(C)CCNc1oc(-c2ccc(COc3ccc(Cl)cc3)o2)nc1C#N	0	8
60	Cc1ccc(C)c(CC(=O)N2CCC(n3c(C)nc4cc(C(F)(F)F)ccc43)CC2)c1	1	-1

#	molecule	NPYLR7 ag	NPYLR7 ag max-min
61	CS(=O)(=O)N1CCN=C1SCc1ccc(C(F)(F)F)cc1	9	8
62	O=C(c1ccc(-c2ccccc2F)o1)N1CCN(S(=O)(=O)c2c(Cl)cccc2Cl)CC1	1	1
63	O=C(NCC1(c2cccc(F)c2)CCOCC1)c1cn[nH]n1	2	-7
64	COC(=O)c1ccc(C(=O)OC)c(NC(=O)C2CC2)c1	-4	-8
65	COc1cccc(Cn2c(=O)c(C(=O)NCC3CCCO3)nn(-c3cc(C)cc(C)c3)c2=O)c1 (centres undefined)	1	8
66	CN(Cc1ccc(F)cc1)C(=O)C1CCN(C(=O)c2ccc(F)cc2)CC1	1	0
67	CCC(c1ccccc1)C1CCCN1C(=O)C(C)NC(=O)c1ccc(Br)s1 (centres undefined)	-7	-7
68	O=C(c1cc(COc2ccc(-n3cncn3)cc2)on1)N1CCCCO1	1	2
69	Cc1[nH]nc2c1C(c1ccccc1)CC(c1ccccc1)=C2 (centres undefined)	-1	-4
70	CC(=O)[C@@H]1C[C@H](CC(=O)NCCCOc2cccc([N+](=O)[O-])c2)C1(C)C	-26	-33
71	O=C(Cn1ncc2ccccc21)N1CCC(n2cc(-c3ccccn3)nn2)CC1	-4	0
72	Cc1cc(Br)ccc1NC(=O)c1ccc(S(=O)(=O)NCC2CCCO2)cc1 (centres undefined)	1	-2
73	CSc1ccc(Cn2c(C)c(C(=O)NCc3ccc(C#N)cc3)sc2=O)cc1	6	4
74	CSc1nc(N)c2c3c(sc2n1)COC(C(C)C)C3 (centres undefined)	1	0
75	COC(=O)C(C)Nc1cc(C)ccc1C (centres undefined)	16	5

Part of the list above, in transposed form:
19) CCOC(=O)CCCCCCCCCCCCC1C=CCC1 (centres undefined)
20) Cc1noc(C)c1CSCC(=O)NC1COc2ccccc2C1 (centres undefined)
21) O=C(C1=Cc2ccccc2OC1)N(Cc1cccnc1)c1ccc(F)cc1
22) COCC(=O)N1CCN(c2ccc(Oc3ccccc3)cc2)C(=O)C1C (centres undefined)
23) Cc1[nH]cnc1-c1c(-c2ccccc2)ncn1CC(=O)Nc1nccs1
24) Cc1ccc(N2CC(NC(=O)N3CCn4cccc4C3c3ccccc3F)CC2=O)cc1 (centres undefined)
25) CC(c1ccncn1)N(C)C(=O)c1ccc(NC(=O)C2CCC2)cc1 (centres undefined)
26) Cc1ccc(C=NN2CCN(C)CC2)s1

screen / no. | 19 | 20 | 21 | 22 | 23 | 24 | 25 | 26
NPYLR7 ag | -13 | 4 | 13 | 2 | 12 | 11 | 3 | 6
NPYLR7 ag max-min | -14 | 2 | 10 | 5 | 8 | 5 | 4 | 5

27) CCC(C)(C)NC(=O)c1ccc2c(c1)S(=O)(=O)c1ccccc1C2=O
28) Cc1ccc(Cl)c(C(=O)N2CCc3c(nc(-c4ccncc4)[nH]c3=O)C2)c1
29) COc1ccc(C2=CC(C)(c3ccc(OC)c(F)c3)Nc3ncnn32)cc1F (centres undefined)
30) FC(F)(F)c1ccc(C2c3cccn3CCCN2Cc2ccc3c(c2)OCCO3)cc1 (centres undefined)
31) CSC(C)Cc1c(-c2ccccc2)ncn1Cc1noc(C2CCCC2)n1 (centres undefined)
32) O=C(NCC1(c2ccccc2)CCOCC1)C1CC(Cc2cccc(Cl)c2)=NO1 (centres undefined)
33) N#C/C(=C/c1ccc[nH]1)c1cccc(C#N)c1
34) N=c1scc(-c2ccc(Oc3ccccc3)cc2)n1CCCS(=O)(=O)O

screen / no. | 27 | 28 | 29 | 30 | 31 | 32 | 33 | 34
NPYLR7 ag | 6 | 2 | 6 | -3 | 21 | 6 | -10 | 2
NPYLR7 ag max-min | 0 | 0 | 3 | 2 | 13 | 1 | -17 | 1

35) COc1ccc(C2c3ccsc3CCN2CC(=O)N2CCN(S(=O)(=O)c3ccc(Cl)c([N+](=O)[O-])c3)C(C)C2)cc1 (centres undefined)
36) CCCCCc1nnc(NC(=O)CCn2nc(-c3cccs3)oc2=O)s1

screen / no. | 35 | 36
NPYLR7 ag | -14 | -3
NPYLR7 ag max-min | -4 | 1

(further entries)
#	molecule	NPYLR7 ag	NPYLR7 ag max-min
76	CC(C)c1cncnc1N1CCC2(CCNCC2)CC1	6	2
77	CC(C)Cc1c(-c2ccccc2)ncn1Cc1ccncc1	22	8
78	Oc1c(Cl)cc(Cl)c2ccc(N/N=C\c3ccc(OC(F)(F)F)cc3)nc12	-6	-8
79	O=C1C(=O)N(CN2CCc3sccc3C2c2cccs2)c2ccc(F)cc21 (centres undefined)	3	2
80	COc1ccc(-c2cc(C(F)(F)F)nc(-n3cc(Cl)cn3)n2)cc1	11	3
81	COCCNC(=S)Nc1c(C)n(C)n(-c2ccccc2)c1=O	-10	3
82	Fc1ccc(-c2cnc(CSc3nnc(C4CC4)n3C3CC3)o2)cc1	6	10
83	CCCCC1C=CCN1C(=O)c1cc2n(n1)CCCN(C(C)=O)C2 (centres undefined)	8	6
84	CCc1nnc(-c2cc3ccccc3n2CC)o1	-10	-5
85	S=c1[nH]c2cc(Cl)cnc2[nH]1	-4	-5
86	CCc1nc2n(n1)C(=O)C(C(c1ccc(C(C)C)cc1)N1CCC(C(N)=O)CC1)S2 (centres undefined)	-4	-9
87	Cc1csc(CCNC2(P(=O)(O)O)CCCC(C)C2)n1 (centres undefined)	11	20
88	Cc1nn(-c2ccc([N+](=O)[O-])cc2)c(C)c1C(=O)N(C)Cc1ccccc1	-2	11
89	CCC(CC)C(=O)N(C)c1c(C)nc2c(OCc3ccc(Cl)cc3Cl)cccn12	10	-1
90	CCC(CC(C)CO)NC(=O)c1ccc(Cl)c(S(=O)(=O)N(C)C)c1 (centres undefined)	8	5

#	molecule	NPYLR7 ag	NPYLR7 ag max-min
91	C=CCOC(=O)C1=C(C)NC(=O)NC1c1ccc(OC)c(OC)c1 (centres undefined)	0	-4
92	CN1CCn2nc(C(=O)N(C)CCn3ccc4ccccc43)cc2C1	-1	0
93	CC(=O)c1ccc(C(=O)N(CCCN(C)C)c2nc3c(C)cccc3s2)cc1	0	-2
94	CCCCC(CC)C(=O)Nc1c(-c2ccc(OC)cc2)nc2ccccn12 (centres undefined)	-2	6
95	CC(NC(=O)c1ccc2c(c1)NC(=O)CCS2)c1ccc(-n2ccnc2)cc1 (centres undefined)	7	1
96	CN(Cc1n[nH]c2c1CCCC2)C(=O)C1CCC(=O)N(CCN2CCOCC2)C1 (centres undefined)	-4	-9

Only part of the results is shown; rates above refer to the full screens.
